High-throughput results: PubChem BioAssay, Broad Institute
Ecoli rRNA inh – inhibits bacterial ribosomal RNA function over humanized ribosomes. GFP signal change (wild-type ribosome), % (concentration not given with the values). AID 720706. hit rate 1.6% among 350,000. E. coli WT GFP vs humanized-ribosome RFP mutants, fluorescence, 24 h; hits give low values; DMSO median 0, no signal -100;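 active = significant combined selectivity score with lowered wild-type GFP, culture density cut under 30%, mutant RFP and density less affected; inactive = any of these conditions unmet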; note: one replicate is shown; some compounds called inactive have numbers as strong as hits
Ecoli rRNA inh OD600 – further read-out of Ecoli rRNA inh, marked with its call; OD600 change, %; measured here: OD600 growth;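 optical density of the mix in the first replicate; 0 = DMSO median and -100 = no signal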
Ecoli rRNA inh RFP – recorded beside Ecoli rRNA inh, whose call it bears; RFP signal change, %; measured here: RFP humanized mutant strains;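 first replicate; 0 = DMSO median and -100 = no signal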
Starred values were filed as active, the others as inactive; & = joins results of further samples; ! = not confirmed by another sample. A portion of the library; the hit share may differ from the screen's.

SMILES	Ecoli rRNA inh	Ecoli rRNA inh OD600	Ecoli rRNA inh RFP
COc1ccc(NC(=O)N(C)C[C@@H]2Oc3c(NC(=O)Nc4ccc(F)cc4)cccc3C(=O)N([C@@H](C)CO)C[C@H]2C)cc1	-2	8	-1.9
COc1cccc(-c2cnc3c(c2)C(=O)N([C@H](C)CO)C[C@H](C)[C@H](CN(C)C(=O)NC(C)C)O3)c1	-2	4	-2.8
Cn1cnc(CCNC(=O)C[C@@H]2CC[C@H]3[C@@H](COC[C@H](O)CN3C(=O)Nc3ccc(F)cc3)O2)c1	3	12	-1.0
O=C(C1CCCC1)N1CC[C@@H]2[C@H](CO)Nc3ccc(C4=CCCCC4)cc3[C@@H]21	-32	-51	29
C[C@@H]1CN([C@@H](C)CO)C(=O)c2cc(Br)cnc2O[C@@H]1CN(C)C(=O)C1CCCCC1	6&0	14&20	2.0&-5.1
COc1ccc(C(C(=O)Nc2ccc(F)cc2)N2CCN(C(=O)c3ccco3)CC2)cc1 (stereo unspecified)	1	-1	4.5
COc1cccc(S(=O)(=O)N2CCCCN3[C@H](CO)[C@H](c4ccc(-c5cccnc5)cc4)[C@H]3C2)c1	-4	10	-1.8
CCCC(=O)Nc1ccc2c(c1)OC[C@H](C)N(Cc1cncnc1)C[C@H](C)[C@H](OC)CN(C)C2=O	3	3	-1.5
CCCNC(=O)[C@@H]1[C@@H](CO)[C@@H]2Cn3c(ccc(C4=CCCCC4)c3=O)[C@H]1N2C(=O)CC	-1	6	-1.0
C[C@H](O)C#Cc1cnc2c(c1)C(=O)N([C@@H](C)CO)C[C@H](C)[C@H](CN(C)C(=O)CN(C)C)O2	9	0	-3.6
C[C@@H]1CN([C@H](C)CO)C(=O)c2cc(C#Cc3ccccn3)cnc2O[C@H]1CN(C)Cc1ccccc1	1	4	0.7
CCCCNC(=O)C(NC(=O)Cc1cc(C(F)(F)F)cc(C(F)(F)F)c1)C(=O)c1ccccc1 (stereo unspecified)	7	8	0.2
O=C(Cc1ccncc1)NCC[C@@H]1CC[C@@H](NS(=O)(=O)c2ccccc2Cl)[C@@H](CO)O1	1	4	-1.3
C[C@@H]1CN([C@@H](C)CO)C(=O)c2cc(C#CCN(C)C)cnc2O[C@H]1CN(C)C(=O)CN1CCOCC1	3	11	-2.9
COc1ccc(CN(C)C[C@H]2OCCCC[C@@H](C)Oc3ccc(NC(=O)c4ccccc4)cc3C(=O)N([C@H](C)CO)C[C@@H]2C)cc1	-2&0	7&-1	3.5&-3.0

The closing 2 records of the section above lead into the next:
SMILES	Ecoli rRNA inh	Ecoli rRNA inh OD600	Ecoli rRNA inh RFP
C[C@@H]1CN([C@@H](C)CO)C(=O)c2cc(C#CCN(C)C)cnc2O[C@H]1CN(C)C(=O)CN1CCOCC1	3	11	-2.9
COc1ccc(CN(C)C[C@H]2OCCCC[C@@H](C)Oc3ccc(NC(=O)c4ccccc4)cc3C(=O)N([C@H](C)CO)C[C@@H]2C)cc1	-2&0	7&-1	3.5&-3.0
C[C@@H]1CN([C@H](C)CO)C(=O)c2cc(C#CC3(O)CCCC3)cnc2O[C@@H]1CN(C)CC1CC1	3	12	-4.8
C[C@H](CO)N1C[C@H](C)[C@H](CN(C)C(=O)Cc2ccncc2)Oc2cc(C#CC3(O)CCCC3)ccc2S1(=O)=O	-4	-5	0.5
C#Cc1ccc(NC(=O)C2(C)CCN2C(=O)Cc2ccc(-c3ccccc3)cc2)cc1 (stereo unspecified)	-2	5	0.2
COc1cc(CN2CC3(CN(C(C)=O)C3)c3c([nH]c4cc(OC)ccc34)[C@H]2CO)cc(OC)c1	0	1	1.2
COc1cccc(CN2CCC3(CC2)CN(C(=O)C2CC2)[C@H](CO)c2[nH]c4cc(OC)ccc4c23)c1	2	4	-2.8
C[C@H](CO)N1C[C@H](C)[C@@H](CN(C)Cc2ccncc2)Oc2ncc(/C=C/c3ccccc3)cc2C1=O	-6	-12	6.9
C[C@H]1CN([C@@H](C)CO)C(=O)c2cccc(NS(C)(=O)=O)c2O[C@@H]1CN(C)C(=O)Nc1ccc(C(F)(F)F)cc1	-1	-2	-1.1
O=C(C1CCOCC1)N1CC(=O)N2[C@@H](CO)[C@H](c3ccc(C#CC4CCCC4)cc3)[C@@H]2C1	2	24	0.3
Cc1noc(C)c1NC(=O)Nc1ccc2c(c1)C(=O)N([C@@H](C)CO)C[C@@H](C)[C@@H](CN(C)S(=O)(=O)c1cccs1)O2	3	8	2.8
C[C@@H]1CN([C@@H](C)CO)C(=O)Cc2cc(NC(=O)Nc3cccc4ccccc34)ccc2O[C@@H]1CN(C)S(=O)(=O)c1cccs1	-2	-6	-0.8
Cc1noc(C)c1NC(=O)N(C)C[C@@H]1OCCCC[C@H](C)Oc2ccc(NC(=O)Nc3ccc(C(F)(F)F)cc3)cc2C(=O)N([C@H](C)CO)C[C@@H]1C	-6	-13	-2.9
COCC(=O)N1CC2(C1)[C@H](c1ccc(-c3ccc(C)cc3)cc1)[C@H](CO)N2C(C)=O	1	0	-0.6
COc1ccc(-c2ccccc2[C@H]2[C@@H](C#N)N(C(=O)NC3CCCC3)[C@H]2CO)cc1	2	-18	-2.7
CC(C)NC(=O)N[C@@H]1C=C[C@H](CC(=O)O)O[C@@H]1CO	1	0	-1.9
CCCNC(=O)N[C@@H]1C=C[C@@H](CC(=O)NC2CCCCC2)O[C@@H]1CO	2	3	0.3

Four records picked at random from the list so far, as already listed:
SMILES	Ecoli rRNA inh	Ecoli rRNA inh OD600	Ecoli rRNA inh RFP
O=C(C1CCOCC1)N1CC(=O)N2[C@@H](CO)[C@H](c3ccc(C#CC4CCCC4)cc3)[C@@H]2C1	2	24	0.3
C[C@@H]1CN([C@@H](C)CO)C(=O)Cc2cc(NC(=O)Nc3cccc4ccccc34)ccc2O[C@@H]1CN(C)S(=O)(=O)c1cccs1	-2	-6	-0.8
C[C@H](CO)N1C[C@H](C)[C@H](CN(C)C(=O)Cc2ccncc2)Oc2cc(C#CC3(O)CCCC3)ccc2S1(=O)=O	-4	-5	0.5
C#Cc1ccc(NC(=O)C2(C)CCN2C(=O)Cc2ccc(-c3ccccc3)cc2)cc1 (stereo unspecified)	-2	5	0.2

Remaining list, next part:
SMILES	Ecoli rRNA inh	Ecoli rRNA inh OD600	Ecoli rRNA inh RFP
COc1ccc(OC(F)(F)F)cc1CC1(C)C(=O)Nc2ccc(S(=O)(=O)NC3CCCCC3)cc21 (stereo unspecified)	4	2	4.2
Cc1ccc(CCN2CC(C(=O)NC3CCC(C)CC3)CC2=O)cc1 (stereo unspecified)	-1	8	2.2
C[C@H]1CN([C@@H](C)CO)C(=O)Cc2cc(NC(=O)C3CC3)ccc2O[C@H]1CN(C)Cc1ccncc1	2	9	0.5
C[C@@]12C(C[C@H](O)[C@@]34C[C@@H](CCC13)[C@@H](CO)C4=O)[C@](C)(C(=O)O)CC[C@@H]2O (stereo partly specified)	11	4	-1.8
Cc1ccccc1-c1ccc2c(c1)O[C@H](CN(C)C(=O)C1CC1)[C@@H](C)CN([C@H](C)CO)S2(=O)=O	-6	-16	4.4
C/C=C/c1ccc([C@@H]2[C@@H](CO)N(CC3CCCC3)C23CN(S(=O)(=O)CC)C3)cc1	-2	-11	-0.2
CCCNC(=O)N[C@H]1C=C[C@@H](CC(=O)N2CCN(C)CC2)O[C@@H]1CO	1	2	-1.2
C[C@H](CO)N1C[C@H](C)[C@H](CN(C)S(=O)(=O)c2ccccc2)OCCCC[C@H](C)Oc2ccc(N(C)C)cc2C1=O	-5	2	-0.6
Cc1ccc(S(=O)(=O)Nc2ccc3c(c2)C(=O)N([C@H](C)CO)C[C@H](C)[C@@H](CN(C)Cc2ccc4c(c2)OCO4)OCCCC[C@H](C)O3)cc1	1	-15	4.9
C[C@@H]1CCCCO[C@H](CN(C)Cc2ccc(Cl)c(Cl)c2)[C@@H](C)CN([C@@H](C)CO)C(=O)c2cc(NC(=O)c3ccccc3)ccc2O1	2	3	5.2
COc1cc(CNC(=O)OC2CC3CC2[C@H]2CCCCN2C3=O)cc(OC)c1 (stereo partly specified)	23	12	3.2
O=C(COC(=O)CN1C(=O)c2ccccc2C1=O)Nc1ccccc1C(F)(F)F	8	15	-1.0
C[C@@H]1CN([C@@H](C)CO)C(=O)c2ccccc2-c2ccccc2CO[C@H]1CN(C)C(=O)[C@H](Cc1ccccc1)N(C)C	0	-2	-1.0
Cc1noc(C)c1S(=O)(=O)Nc1ccc2c(c1)C(=O)N([C@@H](C)CO)C[C@@H](C)[C@@H](CN(C)C(=O)c1ccccc1)OCCCC[C@@H](C)O2	-1	-4	0.5
C[C@@H]1CN([C@@H](C)CO)C(=O)c2cc(NC(=O)CCN3CCOCC3)ccc2O[C@@H]1CN(C)S(=O)(=O)c1ccccc1	2	6	0.9
CN(C)CC#Cc1ccc([C@@H]2[C@H]3CN(C(=O)c4ccc(F)cc4)CC(=O)N3[C@H]2CO)cc1	2	6	0.0
COC(=O)C[C@@H]1CC[C@H](NC(=O)c2ccccc2)[C@@H](CO)O1	2&3	6&5	-1.5&-1.0
C[C@@H]1CN([C@H](C)CO)C(=O)c2cccc(NC(=O)Nc3ccc(C(F)(F)F)cc3)c2O[C@@H]1CN(C)C(=O)Nc1cccc2ccccc12	1	13	4.9
CCCNC(=O)Nc1ccc2c(c1)OC[C@@H](C)N(Cc1ccc(-c3ccccn3)cc1)C[C@@H](C)[C@H](OC)CN(C)C2=O	-1	2	3.7
O=C(Nc1ccccc1F)N1CC(=O)N2[C@H](C1)[C@@H](c1ccc(C#CC3CCCC3)cc1)[C@@H]2CO	-11	-42	21
Cc1ccc(S(=O)(=O)Nc2cccc3c2O[C@@H](CN(C)S(=O)(=O)c2ccc(C)cc2)[C@@H](C)CN([C@@H](C)CO)C3=O)cc1	-1	-1	2.8
COc1ccccc1CN1C[C@@H](C)[C@@H](OC)CN(C)C(=O)c2ccc(NC(C)=O)cc2OC[C@H]1C	3	2	-2.5
C#CCN(C[C@H]1[C@H](OC(=O)NCc2ccc(OC)c(OC)c2)[C@H](OC(=O)NCc2ccc(OC)c(OC)c2)C[C@H]2C(=O)N(c3ccccc3)C(=O)[C@@H]12)S(=O)(=O)c1ccc(C)cc1	9	14	1.6
CC(C)NC(=O)N(C)C[C@H]1Oc2ccc(NC(=O)C3CC3)cc2C(=O)N([C@@H](C)CO)C[C@H]1C	2	5	-2.9
COc1ccc(NC(=O)N(C)C[C@H]2OCCCC[C@@H](C)Oc3ccc(NC(=O)Cc4ccccc4)cc3C(=O)N([C@@H](C)CO)C[C@@H]2C)cc1	-4	-1	2.0
C[C@H]1CN([C@@H](C)CO)C(=O)c2cc(Br)cnc2O[C@@H]1CN(C)C(=O)Nc1ccc(C(F)(F)F)cc1	-12*!	-5.1*!	-0.2*!
CCCC#Cc1cnc2c(c1)C(=O)N([C@@H](C)CO)C[C@@H](C)[C@H](CN(C)C(=O)c1ccc3c(c1)OCO3)O2	1	-7	-1.1
Cc1nc2ccc(C(=O)Nc3cccc(NS(C)(=O)=O)c3)cn2c1N(C)C(=O)CCc1ccccc1	0	-8	0.0
COc1ccc(S(=O)(=O)N(C)C[C@@H]2OCCCC[C@@H](C)Oc3ccc(NC(=O)Nc4c(C)noc4C)cc3C(=O)N([C@H](C)CO)C[C@@H]2C)cc1	2	5	0.0
C[C@@H]1CCCCO[C@H](CN(C)C(=O)Nc2ccccc2)[C@H](C)CN([C@@H](C)CO)C(=O)c2cc(NS(=O)(=O)c3ccccc3)ccc2O1	-3	-7	-1.5
C[C@H](CO)N1C[C@H](C)[C@H](CN(C)Cc2ccc(-c3ccccc3)cc2)Oc2ccc(NS(=O)(=O)c3cn(C)cn3)cc2C1=O	3	-3	5.3
C[C@@H]1CN([C@H](C)CO)C(=O)c2cc(NS(=O)(=O)c3cccs3)ccc2O[C@@H](C)CCCCO[C@@H]1CN(C)S(=O)(=O)c1ccccc1	-1	0	0.7
C[C@@H]1CN([C@@H](C)CO)C(=O)Cc2cc(NS(=O)(=O)c3ccc(F)cc3)ccc2O[C@H]1CN(C)S(=O)(=O)c1cccs1	-5	-11	0.8
O=C(COc1ccc(Cl)cc1)N1CCN(S(=O)(=O)c2cc(F)ccc2F)CC1	-8	-26	-1.4
O=C(C[C@@H]1C[C@@H]2c3cc(NS(=O)(=O)c4ccc(F)cc4)ccc3O[C@@H]2[C@@H](CO)O1)NC1CCCCC1	-9&-4	-18&-8	-1.6&1.8
O=S1(=O)N[C@@H](Cc2ccccc2)COc2ccc(Cl)cc21	-34	-30	-10
COc1ccccc1S(=O)(=O)N1C[C@H](O)COC[C@@H]2O[C@H](CC(=O)O)CC[C@H]21	4	10	-2.2
CC(=O)N1CCCCN2[C@H](C1)[C@@H](c1ccc(-c3ccc(C)cc3)cc1)[C@@H]2CO	1	-1	4.4
O=C(C[C@@H]1C[C@H]2c3cc(NC(=O)c4cccnc4)ccc3O[C@H]2[C@H](CO)O1)NCc1cc(F)ccc1F	-7	-7	1.8
C[C@@H]1CN([C@H](C)CO)C(=O)c2cc(C#CCc3ccccc3)cnc2O[C@H]1CN(C)C(=O)Cc1cccnc1	-8	4	-2.5
COCC#Cc1cnc2c(c1)C(=O)N([C@@H](C)CO)C[C@H](C)[C@H](CN(C)C(=O)C1CC1)O2	10	1	0.0
C[C@@H]1CN([C@H](C)CO)C(=O)c2cc(NS(C)(=O)=O)ccc2O[C@H]1CN(C)S(=O)(=O)c1ccc(Cl)cc1	-1	-2	-0.7

Copied from the list:
O=C(C[C@@H]1C[C@@H]2c3cc(NS(=O)(=O)c4ccc(F)cc4)ccc3O[C@@H]2[C@@H](CO)O1)NC1CCCCC1 in Ecoli rRNA inh OD600: -18&-8
O=C(COc1ccc(Cl)cc1)N1CCN(S(=O)(=O)c2cc(F)ccc2F)CC1 in Ecoli rRNA inh RFP: -1.4
O=C(C[C@@H]1C[C@H]2c3cc(NC(=O)c4cccnc4)ccc3O[C@H]2[C@H](CO)O1)NCc1cc(F)ccc1F in Ecoli rRNA inh OD600: -7
O=S1(=O)N[C@@H](Cc2ccccc2)COc2ccc(Cl)cc21 in Ecoli rRNA inh OD600: -30
